High-throughput results as filed in PubChem.
Six1-Eya2 blk: inhibitors of human Six1/Eya2 interaction. AlphaScreen GST-Six1/His-Eya2 binding, biochemical; active compounds read low; control for the full effect not named in the record. activity change, % (concentration not given with the values). 0.56% of 360,000 active. AID 651725; in the data active = activity change below about -65%; inconclusive = about -30% to -65%; inactive = above about -30%
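AlphaScreen with GST-Six1 and His-Eya2 (5X mix: 250 nM and 500 nM), glutathione donor and nickel acceptor beads; buffer 50 mM Tris pH 8.0, 300 mM NaCl, 1 mM TCEP; 1 h at 37 C in the dark.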
CtBP-E1A blk: blocks the CtBP interaction with E1A; AID 651724; 0.49% of 340,000 active; activity change, % (concentration not given with the values); AlphaScreen GST-E1A/His-CtBP binding, 1536-well; active compounds read low; control for the full effect not named in the record; in the data active means activity change below about -65%; inconclusive means about -30% to -65%; inactive means above about -30%
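Homogeneous bead-based format: GST-tagged E1A captured on glutathione donor beads, His-tagged CtBP on nickel acceptor beads; compounds precede bead addition by 2 h at 37 °C.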
* = called active by the depositor. On the % scale 0 is the no-effect control and ±100 the full control effect. An excerpt; rates above refer to the full screens.

SMILES	Six1-Eya2 blk	CtBP-E1A blk
CCCCNC(=O)C[C@@H]1C[C@@]2(C(=O)OC)CC(C)(C)CC=C2N(Cc2ccc3c(c2)OCO3)C1=O	-6.1	-10.2
CCOC(=O)[C@]12CCC=C1N(Cc1ccco1)C(=O)[C@H](CC(=O)NCCCCc1ccccc1)C2	2.1	-21.3
O=C(C[C@@H]1C=C[C@@H](NC(=O)C2CC2)[C@@H](CO)O1)NCc1ccccc1Cl	9.8	-11.9
Cc1cccc(C)c1NC(=O)C(c1ccnc2ccccc12)N1CCN(CCN(C)C)CC1 (stereo not given)	8.5	-1.4
CC(C=CC(O)=C1C(=O)CNC1=O)=C[C@@H](C)C1OC2(C)OC(C(=O)C3O[C@@]32C)C1C (stereo not given in full)	-10.5	-3.2
CC(C)CNC(=O)C1C(=O)Nc2ccccc2C(=O)N1C1CCCCC1 (stereo not given)	17.0	3.9
CC(C)NC(=O)C1C(c2ccc(C(F)(F)F)cc2)=Nc2ccccc2N1C(=O)c1cccc2ccccc12 (stereo not given)	-2.2	-4.6
CC(C)(C)C1CCC(=O)N2CCC[C@]2(c2ccccc2)C1 (stereo not given in full)	1.5	1.9
COC(=O)[C@]12CCCCC=C1N(Cc1ccccc1)C(=O)[C@H](CC(=O)N1CCOCC1)C2	0.5	9.1
Cc1cccc(C)c1NC(=O)C(C1CC1)n1c(=O)c(-c2ccco2)nc2ccccc21 (stereo not given)	-24.0	-5.0
CC1(c2nnnn2Cc2ccccc2)CCC(=O)N1CCCn1ccnc1 (stereo not given)	13.2	0.0
CCCCCCN1CCN(C2CN(Cc3cn(Cc4cccc(Cl)c4)nn3)S(=O)(=O)C2)CC1 (stereo not given)	5.1	-14.4
CCOC(=O)N1CCN(C(=O)C[C@@H]2C[C@@]3(C(=O)OC)CC(C)(C)CC=C3N(Cc3cccc4ccccc34)C2=O)CC1	-18.7	-2.3
CCC(C)CN1C(=O)CN(S(C)(=O)=O)CC1(C)C(=O)Nc1c(C)cccc1C (stereo not given)	6.5	0.9
CCCCCCCCN1C(=O)[C@H](CC(=O)NCc2cccc(C(F)(F)F)c2)C[C@@]2(C(=O)OC)CCCCC=C12	7.8	0.3
NC(=O)c1nnn(Cc2cc(Cl)c(C(=O)c3ccc(Cl)cc3)c(Cl)c2)c1N	0.6	6.9
CCCCCCCCN1C(=O)[C@H](CC(=O)N2CCN(C(=O)c3ccco3)CC2)C[C@@]2(C(=O)OC)CC(C)(C)CC=C12	1.2	20.9
O=C(NC1CCCCC1)C(c1ccccc1F)n1c(=O)c(-c2ccco2)nc2ccccc21 (stereo not given)	-2.9	7.2
COC(=O)C[C@H]1C=C[C@@H](NS(=O)(=O)c2ccc(C)cc2)[C@@H](CO)O1	-7.0	0.9
CCOC(=O)[C@]12CCCC=C1N(Cc1ccc3c(c1)OCO3)C(=O)[C@H](CC(=O)NCCCN1CCCC1=O)C2	7.3	-24.1
CC(C(=O)NC1CCCC1)n1c(C2CC2)nc2ccccc21 (stereo not given)	-1.4	5.2
O=C1c2c(-c3ccc(Br)cc3)noc2CCN1Cc1cn(C2CCCC2)nn1	-1.7	4.8
CCCCn1nnnc1C1(C)CCC(=O)N1Cc1ccco1 (stereo not given)	11.6	-22.8
O=C1c2ccccc2C(c2nnnn2Cc2ccccc2)N1C1CC1 (stereo not given)	2.1	6.6
CCCCNC(=O)C1C(c2ccc(C(F)(F)F)cc2)=Nc2ccccc2N1C(=O)C1CCN(C(C)=O)CC1 (stereo not given)	4.3	-1.4

Random excerpt: 2 compounds from above
SMILES	Six1-Eya2 blk	CtBP-E1A blk
CC(C)(C)C1CCC(=O)N2CCC[C@]2(c2ccccc2)C1 (stereo not given in full)	1.5	1.9
Cc1cccc(C)c1NC(=O)C(c1ccnc2ccccc12)N1CCN(CCN(C)C)CC1 (stereo not given)	8.5	-1.4

Next section
SMILES	Six1-Eya2 blk	CtBP-E1A blk
COc1ccc(Cc2c(C3CCCCC3)nc3cc(C)c(Br)c(C)n23)c(C)c1	-4.5	-5.2
O=C(Nc1ccc(F)cc1)C(CCc1ccccc1)N1CCN(C(=O)c2ccco2)CC1 (stereo not given)	-2.9	1.9
COc1ccc(C2=Nc3ccccc3N(C(=O)c3ccc(C)cc3)C2C(=O)Nc2c(C)cccc2C)cc1 (stereo not given)	-7.9	-0.9
COc1cc(C=C2C(=O)C=CC2=O)ccc1O	-73.9*	7.4
COC(=O)C1=CN(c2ccc(OC)cc2OC)C(N)=C(C#N)C1c1cccc([N+](=O)[O-])c1 (stereo not given)	-15.1	-17.1
O=C(Nc1ccc(F)cc1)C(c1ccccc1OC(F)(F)F)N1CCN(c2cccc(C(F)(F)F)n2)CC1 (stereo not given)	4.0	0.0
COC(=O)C1=CN(c2ccc(C(C)(C)C)cc2)C(N)=C(C#N)C1c1ccc(OC)cc1 (stereo not given)	-5.1	0.8
CCCCCNC(=O)C(c1ccnc2ccccc12)n1c(=O)c(-c2cc3ccccc3[nH]2)nc2ccccc21 (stereo not given)	28.5	14.7
COC(=O)C[C@H]1C=C[C@H](NC(=O)Nc2ccccc2OC)[C@@H](CO)O1	14.4	-22.7
COCCN1C(=O)CCC1(C)c1nnnn1-c1ccc2c(c1)OCCO2 (stereo not given)	-0.8	-0.3
CC(C)C[C@H]1CN(CCCC[C@H]2CNC(=O)C(=O)N2CCc2ccc(O)cc2)C(=O)C(=O)N1Cc1ccccc1	12.3	-10.2
O=C(Nc1ccc(F)cc1)C(c1cccc(F)c1)N1CCN(Cc2c(F)cccc2Cl)CC1 (stereo not given)	7.8	0.0
COC(=O)[C@]12CCCCC=C1N(CCC1=CCCCC1)C(=O)[C@H](CC(=O)NCCCN1CCCC1=O)C2	-1.7	-1.5
CC(C)n1nnnc1C1c2ccccc2C(=O)N1Cc1ccccc1 (stereo not given)	16.1	1.1
COc1ccc(C=C(C#N)C(=O)c2ccccc2)cc1	14.1	7.0
C[C@@H](NC(=O)[C@@H]1CCCN1C(=O)OC(C)(C)C)c1ccccc1	5.4	-19.9
Cc1cc(Br)cn2c(Cc3ccccc3)c(-c3cccc(Cl)c3)nc12	14.1	-23.1
Oc1ccc(C[C@H]2CN([C@@H](Cc3ccccc3)CN3CCCC3CN3C(=S)NC[C@@H]3Cc3ccccc3)C(=S)N2CCc2ccccc2)cc1 (stereo not given in full)	-14.0	-0.1
O=C(NC1CCCC1)C1C(c2ccccc2)=Nc2ccccc2N1C(=O)c1ccc(C(F)(F)F)cc1 (stereo not given)	-1.3	-1.1
COCCCN1C(=O)C(CC(=O)NCCCN(C)C)CC(C(=O)N2CCCCCC2)=C1C (stereo not given)	13.8	-6.4
C[C@@H]1O[C@H](CCc2cccc(Cl)c2)CC2=C1C(=O)OC(C)(C)O2	27.1	11.1
N#CCC1(O)C(=O)N(Cc2ccccc2)c2ccccc21 (stereo not given)	-0.2	9.9
CCOC(=O)/C=C/c1cccc(C)c1O	14.0	5.9
Cc1cc2c(cc1C)-c1nnnn1C(N1CCCCC1)C(=O)N2 (stereo not given)	14.3	5.2
COCCCn1cc(CN2CC(N3CCN(CCO)CC3)CS2(=O)=O)nn1 (stereo not given)	5.4	3.9
CC1Cc2[nH]c(=S)[nH]c(=O)c2C(C(C)C)O1 (stereo not given)	2.4	-5.7
CO[C@@H]1CN(C)C(=O)c2cc(NC(=O)Nc3ccc(Cl)cc3)ccc2OC[C@H](C)NC[C@H]1C	-0.1	-3.2

Arranged by length of the SMILES (lowest first): part of the list above.
SMILES	Six1-Eya2 blk	CtBP-E1A blk
C[C@@H]1O[C@H](CCc2cccc(Cl)c2)CC2=C1C(=O)OC(C)(C)O2	27.1	11.1
CC(C=CC(O)=C1C(=O)CNC1=O)=C[C@@H](C)C1OC2(C)OC(C(=O)C3O[C@@]32C)C1C (stereo not given in full)	-10.5	-3.2
CCCCCCCCN1C(=O)[C@H](CC(=O)N2CCN(C(=O)c3ccco3)CC2)C[C@@]2(C(=O)OC)CC(C)(C)CC=C12	1.2	20.9

Complete entries from above.
CCCCCCCCN1C(=O)[C@H](CC(=O)N2CCN(C(=O)c3ccco3)CC2)C[C@@]2(C(=O)OC)CC(C)(C)CC=C12 reads Six1-Eya2 blk: 1.2; CtBP-E1A blk: 20.9
CCCCCCCCN1C(=O)[C@H](CC(=O)NCc2cccc(C(F)(F)F)c2)C[C@@]2(C(=O)OC)CCCCC=C12 reads Six1-Eya2 blk: 7.8; CtBP-E1A blk: 0.3

Structural class: the entries above with a tert-butyl group.
SMILES	Six1-Eya2 blk	CtBP-E1A blk
CC(C)(C)C1CCC(=O)N2CCC[C@]2(c2ccccc2)C1 (stereo not given in full)	1.5	1.9
COC(=O)C1=CN(c2ccc(C(C)(C)C)cc2)C(N)=C(C#N)C1c1ccc(OC)cc1 (stereo not given)	-5.1	0.8
C[C@@H](NC(=O)[C@@H]1CCCN1C(=O)OC(C)(C)C)c1ccccc1	5.4	-19.9
